Screening data from PubChem BioAssay.
VDR inhibitor: Inhibitors of the vitamin D receptor (VDR): qHTS. Vitamin D3 receptor (Homo sapiens), P11473. VDR-SRC2-3 peptide fluorescence polarization, 2 h. Potency, µM, for inactives: max response, negative = inhibition, usual class: inhibitors. hit rate 0.93% among 400,000. AID 504847, 2011; active = well fitted inhibition curve with a large enough effect; inconclusive = small, poorly fitted or top-dose-only effect, or another doubt; inactive = no such curve, though single readings can be large or run the other way; also: series mostly up to about 120 µM
Target sequence (P11473 whole entry, looked up): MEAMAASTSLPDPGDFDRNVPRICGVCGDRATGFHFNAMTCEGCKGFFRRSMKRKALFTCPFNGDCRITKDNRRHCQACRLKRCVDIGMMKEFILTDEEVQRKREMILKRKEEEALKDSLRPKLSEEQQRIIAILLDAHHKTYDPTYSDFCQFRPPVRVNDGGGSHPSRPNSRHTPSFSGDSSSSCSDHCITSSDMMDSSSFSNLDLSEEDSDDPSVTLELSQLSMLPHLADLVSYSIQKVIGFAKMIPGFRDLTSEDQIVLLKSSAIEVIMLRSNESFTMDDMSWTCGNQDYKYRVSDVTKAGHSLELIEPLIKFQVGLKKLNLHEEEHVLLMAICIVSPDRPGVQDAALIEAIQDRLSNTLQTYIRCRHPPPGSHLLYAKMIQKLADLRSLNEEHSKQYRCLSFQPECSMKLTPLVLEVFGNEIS
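The screen uses fluorescence polarization to detect compounds that interfere with recruitment of the SRC2-3 coactivator peptide to VDR; plates are read after 2 h at room temperature.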
The depositor's hits bear a star; ? = inconclusive; & = joins results of further samples; [ ] = remark or other dose. % is scaled to controls: 0 for no effect and ±100 for the full control effect; potency is read from the fitted curve at half-maximal effect. The list is partial, so the mix of outcomes need not match the whole.

SMILES | VDR inhibitor
N#Cc1ccccc1S(=O)(=O)N1CCN(CC(=O)NCC2(N3CCOCC3)CCCCC2)CC1 | -14%
Cc1ccc(C)c(C(=O)COC(=O)CCN2C(=O)C3C4CCC(C4)C3C2=O)c1 (centres undefined) | 2%
O=C(Nc1ccc(N2CCN(C(=O)c3ccco3)CC2)cc1)c1ccco1 | 3%
O=C(CNC(=O)c1ccc(Br)o1)Nc1ccccc1 | -12%
CC1CC1C(=O)OCC(=O)NC(=O)c1ccc(C(C)(C)C)cc1 (centres undefined) | 30%[activator]
COc1ccc(CNC(=O)CN2C(=O)NC(Cc3ccccc3)(c3ccccc3)C2=O)cc1OC (centres undefined) | 2%
Nc1cc(-c2cccc(Br)c2)nn1Cc1ccccc1 | 12%
CCCC(=O)c1cn(CC(=O)OC)c2ccccc12 | 9%
O=C(Nc1nc(-c2cc(F)ccc2F)cs1)C1=COCCO1 | -5%
CC1CCCCN1S(=O)(=O)c1ccc(N(C(=O)c2cnccn2)C(C(=O)NC2CCCCC2)c2cccs2)cc1 (centres undefined) | 3%
CC(=O)COC(=O)C1CCN(S(=O)(=O)c2cc([N+](=O)[O-])ccc2Cl)CC1 | -1%
COc1cc(NC(=O)Cn2c(=O)n(Cc3ccccc3OC)c(=O)c3cccnc32)cc(OC)c1 | -13%
CCOC(=O)c1cc(CC)sc1NC(=O)c1ccc([N+](=O)[O-])c(N2CCOCC2)c1 | 5%
Cc1cc(C)c(NC(=O)/C=C\C(=O)O)c([N+](=O)[O-])c1 | 12%
Cc1nn(-c2ccccc2)c(C)c1/C=C/C(=O)OC(C)C(N)=O (centres undefined) | 6%
O=C(C1CCCN(Cc2cc(Br)ccc2O)C1)N1CCCCC1 (centres undefined) | -19%
COC(=O)c1cc(OC)c(OC)cc1NC(=O)CSc1nnc(-c2cccnc2)n1C | 6%
Cc1oc(-c2cccc(Cl)c2)nc1CSCC(=O)NCc1ccccc1Cl | -22%
O=C(CCCC(=O)NCC1CCCO1)NCC1CCCO1 (centres undefined) | 18%
COc1ccc2c(c1)c(CC(=O)NCc1ccc3c(c1)OCO3)c(C)n2C(=O)c1ccc(Cl)cc1 | 1%

Arranged by value in VDR inhibitor (lowest first): some entries from above
SMILES | VDR inhibitor
Cc1oc(-c2cccc(Cl)c2)nc1CSCC(=O)NCc1ccccc1Cl | -22%
O=C(Nc1nc(-c2cc(F)ccc2F)cs1)C1=COCCO1 | -5%
CCOC(=O)c1cc(CC)sc1NC(=O)c1ccc([N+](=O)[O-])c(N2CCOCC2)c1 | 5%
CCCC(=O)c1cn(CC(=O)OC)c2ccccc12 | 9%

(continued)
SMILES | VDR inhibitor
O=C(c1cc(COc2ccc(F)c(F)c2)on1)N1CCOCC1 | -20%
Cc1ccc(NC(=O)CSC2=Nc3ccccc3C3=NC(Cc4ccccc4)C(=O)N23)cc1C (centres undefined) | 5%
Cc1ccc(Cl)c(OCCCCN(C)Cc2ccccc2)c1 | -5%
CCOc1cc(/C=C(/NC(C)=O)C(=O)O)cc(Cl)c1OCc1ccc(Br)cc1 | -3%
C#CCNC(=O)C1=C[C@@H](C2CC2)[C@H](CCCO)[C@@H](OCC)O1 | -16%
Cn1c2cc(C#N)sc2c2cnn(Cc3ccc(F)cc3)c(=O)c21 | 10%
O=C(CSc1nnc(-c2ccc(Br)cc2)n1-c1ccccc1)c1ccccc1 | -1%
CN1C2CCC1CC(OC(c1ccccc1)c1ccccc1)C2 (centres undefined) | -3%&4%&-8%
Cc1ccc(NC(=O)CCn2nnc3ccccc32)c(C)c1 | -2%
Cc1ccc(Cn2cc(S(=O)(=O)c3cccc(Cl)c3)c(=O)c3cc(F)c(N4CCOCC4)cc32)cc1 | 15%
O=C(CC1CCCC1)Nc1ccc(Cl)c(S(=O)(=O)N2CCOCC2)c1 | -4%
Cc1ccc(C)c2[nH]c(=O)c(CCNS(=O)(=O)c3ccccc3)cc12 | 2%
CCOc1ccc(CCNC(=O)c2ccc(CS(=O)Cc3ccc(Cl)cc3)o2)cc1OCC (centres undefined) | -2%
Nc1ncnc(Nc2ccc(S(N)(=O)=O)cc2)n1 | -7%
CN1CCN(c2ccccc2NC(=O)c2ccc(-c3cccc(Cl)c3)o2)CC1 | -10%
N#C/C(=C\c1c(N2CCCCCC2)nc2ccccn2c1=O)C(=O)NC1CCS(=O)(=O)C1 (centres undefined) | 1%
CCN(c1ccc(F)cc1)S(=O)(=O)c1cccc2nsnc12 | 8%
CCc1ccc(NC(=O)c2cc(S(=O)(=O)NC3CCCC3)ccc2F)cc1 | 9%
O=C(NNC1=Nc2ccccc2SC1)c1ccc(Cl)cc1 | 3%
Cc1c(C(=O)N(C)Cc2cccc(F)c2)oc2c(Cl)cccc12 | -4%

An excerpt of the results above, as a working copy:
SMILES | VDR inhibitor
N#Cc1ccccc1S(=O)(=O)N1CCN(CC(=O)NCC2(N3CCOCC3)CCCCC2)CC1 | -14%
Cc1ccc(C)c(C(=O)COC(=O)CCN2C(=O)C3C4CCC(C4)C3C2=O)c1 (centres undefined) | 2%
O=C(Nc1ccc(N2CCN(C(=O)c3ccco3)CC2)cc1)c1ccco1 | 3%
O=C(CNC(=O)c1ccc(Br)o1)Nc1ccccc1 | -12%

More structures:
SMILES | VDR inhibitor
COc1ccc(C2Nc3ccccc3C(=O)N2Cc2ccccc2)cc1CSc1ccccn1 (centres undefined) | -7%
CCOc1ccc(NC(=O)c2cccc(NC(=O)c3ccccc3)c2)cc1 | 0%
CC(=O)c1c(C)[nH]c(C(=O)OCc2nnc(-c3ccc([N+](=O)[O-])cc3)o2)c1C | 18%
CCN(C(=O)c1cn(CC(C)C)c(=O)c2cc(OC)c(OC)cc12)c1cc(OC)ccc1OC | -11%
CCC(=O)N1CCCc2cc(S(=O)(=O)N3CCN(c4ncccn4)CC3)ccc21 | -20%
COc1cccc(CN2CCCCC2C(=O)O)c1 (centres undefined) | -7%
COc1ccc(N2CCN(C(=O)C3CCC(Cn4c(=S)[nH]c5ccccc5c4=O)CC3)CC2)cc1 (centres undefined) | ?
O=C(C1CCCC1)N1CCC(CO)(Cc2ccccc2Cl)CC1 | -9%
Cc1nc([N+](=O)[O-])cn1CC(O)c1ccccc1 (centres undefined) | -13%
COC(=O)[C@@]12CCCCN1[C@H](c1ccc(-c3ccc(OC)cc3)cc1)[C@@H]1C(=O)N(C)C(=O)[C@@H]12 | -6%
CC(=O)NC(Cc1ccc(F)c(F)c1)C(=O)NC1CCN(S(=O)(=O)c2ccc(C)cc2)CC1 (centres undefined) | -13%
Cc1ccc(N2CCN(CC(O)COc3ccccc3)CC2)cc1 (centres undefined) | 2%
N#CCCNS(=O)(=O)c1ccc(C(=O)OCCCOC(=O)c2ccc(S(=O)(=O)NCCC#N)cc2)cc1 | -6%
Cc1ccc(NC(=S)NCc2ccccc2)c(C)c1 | -19%
O=C(NCc1ccccc1)/C(=C\c1ccccc1)NC(=O)c1ccco1 | 8%
Cc1ccc(Nc2nc(N)c([N+](=O)[O-])c(NCCO)n2)cc1C | -12%
COc1cccc(CNS(=O)(=O)c2ccc(S(=O)(=O)NC3CC3)cc2)c1 | -3%
O=C(CCNC(=O)c1ccccc1)OCC(=O)c1cccc(Cl)c1 | -3%
COc1cccc(-c2cncnc2-n2ccnc2)c1 | -20%
CC(=O)c1sc(-c2ccccc2)nc1C | 18%
CCCCc1cc(=O)oc2cc(OCC(=O)N(CC)CC)ccc12 | -9%
COc1ccc(CNC(=O)c2sc3nc4c(c(C(F)(F)F)c3c2N)CCC4)cc1OC | 40µM*
O=[N+]([O-])c1ccc(-n2nnnc2-c2ccccc2)c([N+](=O)[O-])c1 | -21%
CC(C)=CCc1c2c(c(O)c3c(=O)c(O)c(-c4ccccc4)oc13)C=CC(C)(C)O2 | -4%
COc1ccc(CNC(=O)c2cnn3c(C)c(Cc4ccc(F)cc4)c(C)nc23)cc1 | -2%
CCOc1ccc(C2c3c(oc4ccc(C)cc4c3=O)C(=O)N2Cc2ccc3c(c2)OCO3)cc1OC (centres undefined) | 6%
COCCNC(=S)N/N=C/c1c(C)[nH]c2ccccc12 | -2%
CCc1ccc(S(=O)(=O)N/N=C\c2ccc([N+](=O)[O-])o2)cc1 | -9%
O=C(CCCCCn1c(=S)[nH]c2cc3c(cc2c1=O)OCO3)NCCc1ccccc1 | 5%
COC(=O)NC(/C=C/c1ccccc1)C(C(C)=O)C(=O)OC (centres undefined) | 0%
Cn1c(=O)n(CC(=O)O)c(=O)c2c1nc1n2CCCN1CCc1ccccc1 | 17%
CCCN(CC(=O)Nc1ccccc1OC)C(=O)Cn1c(=O)oc2ccccc21 | 16%
Cc1cc(F)ccc1NCC(=O)Nc1ccccc1Br | 1%
Cc1nc(SCC(=O)N2CCOCC2)c2c(=O)n(C)c(=O)n(CC(C)C)c2n1 | 16%
CC(Nc1ccc([N+](=O)[O-])cc1[N+](=O)[O-])c1ccccc1 (centres undefined) | -1%
Cc1cccc(NC(=O)Cn2nc([N+](=O)[O-])c(Br)c2C)n1 | -13%
COc1cccc(Nc2nc3c(S(=O)(=O)c4cc(C)ccc4C)nnn3c3ccsc23)c1 | -6%
O=C(CCCn1c(=S)[nH]c2cc3c(cc2c1=O)OCO3)N1CCc2ccccc2C1 | -11%
CCOC(=O)CSc1nnc(NC(=O)c2cc([N+](=O)[O-])cc([N+](=O)[O-])c2)s1 | ?
CCOC(=O)c1scc(-c2ccccc2)c1S(=O)(=O)Nc1cc(Cl)c(OC)cc1OC | 5%
COc1ccc(C2(CO)OC(CO)C(O)C2O)cc1 (centres undefined) | -11%
O=C(NCCOC(=O)c1cccs1)c1cccnc1 | 20%
COc1cccc([C@@H]2Oc3ccc(Br)cc3C[C@H]2OC(=O)Nc2ccc(OC(F)F)cc2)c1 | 1%
COc1ccccc1CCNC(=O)C(=O)NCC(c1cccs1)S(=O)(=O)c1ccc(C)cc1 (centres undefined) | 18%
COc1ccccc1CNC(=O)CN1CCN(c2ccc(C(C)=O)cc2)CC1 | -1%
COC(=O)C1=C(C)N(CCCC(=O)O)C(=O)NC1c1ccc2c(c1)OCO2 (centres undefined) | -7%
CCCCNC(=O)CN1C(=O)NC(Cc2ccccc2)(Cc2ccccc2)C1=O | 6%
CCN(Cc1ccccc1)C(=O)Cn1c(=O)n(-c2ccc(C)c(C)c2)c(=O)c2c(C)c(C)sc21 | 6%
CC1(C)CCC(=O)C=C1Nc1ccc(F)c(Cl)c1 | -3%
CCCNC(=O)COC(=O)c1c2c(nc3ccccc13)CCC2 | -3%
Cc1ccc(C)c(OCC(=O)Nc2ccc(S(=O)(=O)Nc3ncccn3)cc2)c1 | 28%
Cc1cc(C(=O)N2CC=C(c3ccccc3)CC2)c2ccccc2n1 | 9%
CC(NC(=O)CNC(=O)C(Cc1ccccc1)NC(=O)OCc1ccccc1)C(N)=O (centres undefined) | -23%
C#CCN(CC=C)C(=O)C1CCC(=O)N(CCCc2ccccc2)C1 (centres undefined) | -3%
NC(=S)N=Nc1c(O)[nH]c2c(Cl)cc(Cl)cc12 | 14%
COc1ccc(Oc2ncc3nc(C)c(=O)n(C)c3n2)cc1 | 3%
CCc1cccc(-n2c(=O)c3cccnc3n2CC(=O)Nc2ccc(F)c(C)c2)c1 | 9%
CCOc1ccc(NC(=O)N(Cc2ccc(C)cc2)Cc2ccccn2)cc1 | -8%
Cn1c(-c2cccc([N+](=O)[O-])c2)cnc1NCc1cccc([N+](=O)[O-])c1 | -6%
CC(C)CC(=O)NCCNC(=O)c1cc(OCC(F)(F)F)ccc1OCC(F)(F)F | -13%
The list goes on.
SMILES | VDR inhibitor
O=C(O)CCC(=O)N1CCN(S(=O)(=O)c2cccs2)CC1 | -19%
CC(=O)N1CCN(c2ccccc2NC(=O)c2ccc(C#N)cc2F)CC1 | 5%
Cc1cccc(CC2CC(=O)N(c3ccc(C)cc3Br)C2=O)c1 (centres undefined) | -4%
CCN(Cc1ccccc1)S(=O)(=O)c1c(C)[nH]c(C)c1C(=O)N1CCCC1 | -8%
CCN(c1ccccc1)S(=O)(=O)c1cc(Br)cc2c1N(C(=O)C1CC1)CC2 | 5%
CC(C)OCCCNC(=O)CN1CCN(Cc2ccccc2Cl)C1=O | -24%
O=C(Nc1nc2ccccc2[nH]1)c1cccc([N+](=O)[O-])c1 | -7%
CCOC(=O)c1ccc(NC(=O)CSc2nnc(CNC(=O)c3ccco3)o2)cc1 | -7%
Cc1ccccc1C(=O)c1cccn1CC(=O)NCCCN1CC(C)CC(C)C1 (centres undefined) | -12%
O=C(Nc1nc(-c2ccccc2)c(C(=O)c2ccccc2)s1)c1ccc(S(=O)(=O)N2CCCC2)cc1 | -10%
COc1ccccc1NC(=O)Nc1nc(CC(=O)Nc2ccc(OC)c(OC)c2)cs1 | -17%
Cc1nc2nc(NC(=O)c3ccc(Cl)cc3)[nH]n2c(=O)c1Cc1ccccc1 | 5%

Single entries from the results shown:
Result for O=C(Nc1nc2ccccc2[nH]1)c1cccc([N+](=O)[O-])c1 in VDR inhibitor: -7%
Result for CCOC(=O)c1ccc(NC(=O)CSc2nnc(CNC(=O)c3ccco3)o2)cc1 in VDR inhibitor: -7%
Result for CC(=O)N1CCN(c2ccccc2NC(=O)c2ccc(C#N)cc2F)CC1 in VDR inhibitor: 5%
Result for O=C(Nc1nc(-c2ccccc2)c(C(=O)c2ccccc2)s1)c1ccc(S(=O)(=O)N2CCCC2)cc1 in VDR inhibitor: -10%
